# Source: PubChem BioAssay (National Center for Advancing Translational Sciences (NCATS))
# VDR inh = blocks the human vitamin D receptor | P11473 | VDR-SRC2-3 peptide fluorescence polarization, 2 h | Potency, µM, for inactives: max response, negative = inhibition, usual class: inhibitors | 400,000 tested, 0.93% active | AID 504847; active = well fitted inhibition curve with a large enough effect; inconclusive = small, poorly fitted or top-dose-only effect, or another doubt; inactive = no such curve, though single readings can be large or run the other way; note: series mostly up to about 120 µM
# Target sequence (P11473 whole entry, looked up): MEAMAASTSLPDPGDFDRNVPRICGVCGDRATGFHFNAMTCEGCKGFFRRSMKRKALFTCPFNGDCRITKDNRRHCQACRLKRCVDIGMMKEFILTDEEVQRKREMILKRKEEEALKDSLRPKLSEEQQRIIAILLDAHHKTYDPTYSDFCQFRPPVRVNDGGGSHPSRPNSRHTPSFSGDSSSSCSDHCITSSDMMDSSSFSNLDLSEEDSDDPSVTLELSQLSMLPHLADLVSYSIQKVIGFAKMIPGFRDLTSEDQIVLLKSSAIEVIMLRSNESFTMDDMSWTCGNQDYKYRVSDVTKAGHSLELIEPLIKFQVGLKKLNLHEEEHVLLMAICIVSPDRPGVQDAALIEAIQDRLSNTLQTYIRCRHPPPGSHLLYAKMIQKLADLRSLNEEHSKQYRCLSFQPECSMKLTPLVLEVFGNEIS
#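 Signal is fluorescence polarization, reporting how far test compounds block the interaction of VDR with the SRC2-3 coregulator peptide after a 2 h room-temperature incubation.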
# The depositor's hits bear a star; u = inconclusive; & = joins results of further samples; [ ] = another dose, or the depositor's remark. % is set by controls: 0 for no effect and ±100 for the full control effect; potency is the fitted concentration of half-maximal effect. Only part of the results is shown (hit frequency here may not be typical).
SMILES,VDR inh
CCCCc1nc(SCC(=O)N2CCCC2)c2c(=O)n(C)c(=O)n(C)c2n1,-16.7%
NC(=O)c1cccnc1Oc1cccc(Cl)c1,u
COc1ccccc1NC(=S)NNC(=O)c1nn(C)c(C)c1Br,u
O=C(N/N=C/C=C\c1ccco1)c1cccnc1,u
COc1cc(O)c(C(CC(=O)N2CCN(c3ccccc3)CC2)c2cc(OC)c(OC)c(OC)c2)c(OC)c1 (centres undefined),-15.0%&-1.2%
COC(=O)[C@@H]1C[C@H]1[C@@H](NC(=O)c1cc(C)on1)c1ccccc1,5.9%
CCCc1cc(=O)oc2cc(C)cc(OCC(=O)O)c12,-11.4%
CCOc1ccc(NC(=O)CC2C(=O)N(c3cccc(OC)c3)C(=O)N2CCOC)cc1 (centres undefined),-27.1%
Cc1noc(C)c1S(=O)(=O)N(C)C[C@H]1Oc2c(NS(=O)(=O)c3cn(C)cn3)cccc2C(=O)N([C@H](C)CO)C[C@@H]1C,-9.1%
Cc1occc1C(=O)NNC(=O)c1nn(C)c(=O)c2ccccc12,1.7%
CCOC(=O)CC1C(=O)NCCN1C(=O)c1ccc(Cl)cc1Cl (centres undefined),-5.9%
COc1ccc(C2C(C#N)=C(N)Oc3n[nH]c(-c4ccccn4)c32)c(OC)c1OC (centres undefined),11.3%
CCc1ccc(NC(=O)CSc2ccc(-c3cccnc3)nn2)cc1,18.4%
COc1ccc(-n2nnnc2SCc2nc(N)nc(N3CCOCC3)n2)cc1,3.8%
O=C(Nc1cnccn1)c1ccncc1,-10.3%
COC(=O)N1CCC2(CCCN(c3ccc(-c4ccccc4)cc3)C2)CC1,u
Cc1ccc(C(=O)CSc2nn3c(=O)c(C(C)(C)C)nnc3s2)cc1,-4.5%
COc1ccc(N(C(=O)c2ccn[nH]2)C(C(=O)NC(C)(C)C)c2ccc(F)cc2)cc1 (centres undefined),-1.8%
CCc1ccc(C(=O)NC(=S)Nc2ccccc2N2CCOCC2)cc1,-0.6%
CCCCn1cnc2c(sc3nc4c(cc32)CSC(C)(C)C4)c1=O,0.0%
Cc1ccsc1C(=O)OCC(=O)N1CCc2ccccc2C1,-2.3%
CCOc1ccc(Br)cc1S(=O)(=O)Nc1ncn[nH]1,-2.6%
Cc1cccc(-c2nc(Nc3ccc(N4CCOCC4)cc3)c3ccccc3n2)c1,-6.4%
Cc1ccc(S(=O)(=O)N(C)C)cc1NC(=O)C(C)OC(=O)/C=C/c1cccs1 (centres undefined),2.8%
CCCCc1nc2ccn(CC(=O)N(C)C)c(=O)c2n1Cc1ccc(-c2ccccc2-c2nn[nH]n2)cc1,3.0%
Cc1cc(C)nc(NNS(=O)(=O)c2c(C)cc(C(C)(C)C)cc2C)n1,u
COc1cc(OC)c(OC)cc1CN(C)C(c1ccccc1)c1nnnn1-c1ccccc1C (centres undefined),12.2%
COc1ccc(/C=N/NC(=O)c2cccc(S(=O)(=O)N3CCCC3)c2)cc1O,-0.4%
CCOC(=O)C1=NN(C(C)=O)C2(CC(=O)N(c3ccc(C)c(C)c3)C2=O)C1 (centres undefined),-15.3%
Cc1ccc(C)c(NC(=O)C(NCC(C)(C)N2CCOCC2)c2ccccc2)c1 (centres undefined),2.0%
O=S(=O)(N/N=C\C=C\c1ccccc1)c1ccccc1,-3.0%
CCNc1nc(=S)nc(NC(C)C)[nH]1,-0.8%
O=C(CCc1nnc(CCCCc2ccccc2)o1)NCCn1cccn1,-15.6%
c1ccc(CCn2c3ccccc3c3nnc(SCc4ccc5nonc5c4)nc32)cc1,6.7%
O=C(CCC(=O)Nc1ccccc1Cl)N/N=C1\CCCc2ccccc21,-15.1%
O=[N+]([O-])c1cccc(S(=O)(=O)N/N=C/c2ccc(O)cc2)c1,-20.0%
Cc1cccc(N(CC(=O)NC2CCCC2)C(=O)c2c(C)noc2C)c1,20.7%
CSc1ccccc1-n1nnnc1SCc1ccccc1,0.4%
CC(=O)c1cccc(NC(=O)COc2ccc(S(=O)(=O)N3CCCCC3)cc2)c1,0.9%
CC(=O)Nc1ccc(SCC(=O)N2CCN(S(=O)(=O)c3ccccc3)CC2)cc1,-13.8%
O=C(NC1C2CC3CC(C2)CC1C3)c1ccc(Br)o1 (centres undefined),-7.5%
CN(CCc1ccccn1)C(=O)CCC1CCCN(C(=O)c2n[nH]c3c2CCCC3)C1 (centres undefined),8.7%
Clc1cccc(-c2nc3nc4ccccc4nc3n2Cc2ccco2)c1,4.8%
Cc1ccc(OCCN2CCN(c3nc(NCc4ccco4)c4ccccc4n3)CC2)cc1,7.6%
CCN1CCN(C(c2cccs2)C(C)NC(=O)c2ccccc2F)CC1 (centres undefined),-6.6%
Cc1cc(C(=O)Nc2c(C)nn(Cc3ccc(F)cc3)c2C)on1,-2.2%
Cc1cccc(NC(=O)c2cc3c([nH]c4ccccc43)c(C)n2)c1C,-25.8%
NS(=O)(=O)c1ccc(CCNC(=O)C(=O)c2cn(CC(=O)N3CCCC3)c3ccccc23)cc1,-6.5%
c1ccc(-c2cc3ncccc3cn2)cc1,-6.8%
CCCCCOC(=O)C1C2C=CC3(CN(c4ccccc4C)C(=O)C13)O2 (centres undefined),-3.4%
COc1ccccc1CCC(=O)OCC(=O)N1c2ccccc2NC(=O)C1(C)C,u
Cc1oc2c(c(C)cc3oc(=O)c(CC(=O)NCCCO)c(C)c32)c1C,11.2%
Cc1cc(=O)[nH]c(N/N=C/C(C)c2ccccc2)n1 (centres undefined),10.3%
Cc1cc(S(=O)(=O)NC2CCCCC2)ccc1-n1cnnn1,u
C#C[C@]1(O)CCC2C3CCC4=Cc5oncc5CC4(C)C3CCC21C (some centres undefined),-8.2%
O=C(COc1ccccc1Cl)Nc1ccc(N2CCN(C(=O)c3ccccc3)CC2)cc1,-9.0%
N#Cc1c(-c2ccccc2)cc(-c2ccccc2)nc1SCCC(=O)O,u
CCOc1ccc(OCCn2ccnc2)cc1,-9.9%
COc1ccc(C2SCC(=O)N2Cc2ccccc2)cc1 (centres undefined),-21.1%
CCCN(Cc1cccs1)C(=O)Nc1ccccc1C,12.3%

# Among those listed so far, 3 contain bromine:
SMILES,VDR inh
COc1ccccc1NC(=S)NNC(=O)c1nn(C)c(C)c1Br,u
CCOc1ccc(Br)cc1S(=O)(=O)Nc1ncn[nH]1,-2.6%
O=C(NC1C2CC3CC(C2)CC1C3)c1ccc(Br)o1 (centres undefined),-7.5%

# The listing picks up, starting 7 compounds before the break.
SMILES,VDR inh
Cc1cc(S(=O)(=O)NC2CCCCC2)ccc1-n1cnnn1,u
C#C[C@]1(O)CCC2C3CCC4=Cc5oncc5CC4(C)C3CCC21C (some centres undefined),-8.2%
O=C(COc1ccccc1Cl)Nc1ccc(N2CCN(C(=O)c3ccccc3)CC2)cc1,-9.0%
N#Cc1c(-c2ccccc2)cc(-c2ccccc2)nc1SCCC(=O)O,u
CCOc1ccc(OCCn2ccnc2)cc1,-9.9%
COc1ccc(C2SCC(=O)N2Cc2ccccc2)cc1 (centres undefined),-21.1%
CCCN(Cc1cccs1)C(=O)Nc1ccccc1C,12.3%
Cc1c(-c2ccccc2)c(-c2ccc(OCCN(C)C)cc2)n2ccccc12,-0.3%
O=C(CCNC(=O)c1ccc([N+](=O)[O-])cc1)Nc1ccccc1N1CCOCC1,-10.5%
COc1ccc(/C(O)=C2/C(=O)C(=O)N(CCCN3CCOCC3)C2c2ccc(N(C)C)cc2)cc1 (centres undefined),-8.3%
COc1ccc(C(=O)C[n+]2cc(Br)cc3ccccc32)cc1[N+](=O)[O-],-11.4%
CCOc1ccc2nc(N3CCN(C(=O)c4ccco4)CC3)sc2c1,-4.4%
COc1ccc(CCNC(=O)C23CCC(C)(C(=O)C2=O)C3(C)C)cc1OC (centres undefined),11.2%
COc1ccc(C(=O)N2c3nc(-c4ccco4)nn3C3(CCCCC3)[C@@H]3CCCC[C@@H]32)cc1OC,9.3%
COc1cc(/C=N\NC(=O)c2cccnc2)ccc1OC(=O)c1ccccc1Cl,-17.1%
Cc1ccc(NC(c2ccccc2)c2nc3ccccc3[nH]c2=O)cc1 (centres undefined),-5.5%
Cc1ccc(-n2nc(C)c3c2OC(N)=C(C#N)C3c2cccs2)cc1 (centres undefined),3.8%
COc1ccc(CNC(=O)C2CCN(C(=O)c3cnn(-c4ccccc4)c3-n3cccc3)CC2)cc1,2.9%
Cc1nc(NC(=O)C2CCCCC2)sc1C,-5.2%
CC(=O)CCc1ccc(OCCCCn2cncn2)cc1,u
Cn1c(=O)[nH]c(=O)c2c1nc(SCC(O)CO)n2CCCc1ccccc1 (centres undefined),-3.4%
COc1ccccc1N1CCN(/N=C/c2cccc(OC)c2O)CC1,-9.3%
Clc1cccc(CN2CCCCCC2)c1,-19.3%
Cn1cc(/C=N/n2cnc3sc4c(c3c2=O)CCCC4)c2ccccc21,20.0%
CN(C)c1ccc(P(=O)(OCc2ccccc2)C(O)c2ccncc2)cc1 (centres undefined),-14.2%
Cc1[nH]c(=O)[nH]c(=O)c1CSc1nnc([C@@H](NC(=O)OC(C)(C)C)C(C)C)o1,5.7%
CC(NC(=O)/C(C#N)=C/c1cn(-c2ccccc2)nc1-c1ccc(F)cc1)c1ccccc1 (centres undefined),3.0%

# Overlap with the part before: 2 entries, followed by the next part.
SMILES,VDR inh
Cc1[nH]c(=O)[nH]c(=O)c1CSc1nnc([C@@H](NC(=O)OC(C)(C)C)C(C)C)o1,5.7%
CC(NC(=O)/C(C#N)=C/c1cn(-c2ccccc2)nc1-c1ccc(F)cc1)c1ccccc1 (centres undefined),3.0%
CCCC(=O)Nc1c2c(nc3ccccc13)N(c1ccccc1)CC2,0.2%
CN1CCC(OC(=O)c2cccc(Br)c2)CC1,-7.4%
O=C(NC1CCCC1)C(=O)N(Cc1cccnc1)C(C(=O)NC1CCCC1)c1ccco1 (centres undefined),11.6%
Nc1nc(SCC(=O)N2CCCc3ccccc32)n[nH]1,-14.8%
O=C(Nc1ccccc1O)c1cccc(S(=O)(=O)N2CCOCC2)c1,10.5%
CCC(=O)N1CCc2cc(CNS(=O)(=O)c3c(C)cc(C)cc3C)ccc21,0.6%
COc1cccc(N/C(SCc2cccc([N+](=O)[O-])c2)=C(/C#N)C(N)=O)c1,-3.0%
O=C(Cn1nnc2ccccc2c1=O)N[C@@H](Cc1ccccc1)C(=O)O,42.1%[activator]
O=C(NCCNC(=O)c1cnccn1)c1cccc(Cl)c1,-5.1%
CSc1cccc(NC(=O)C(C)Sc2ccc(C)cc2)c1 (centres undefined),-9.8%
COc1cccc(OCC(O)CN2CCN(C)CC2)c1 (centres undefined),-16.8%
COc1ccc(NC(=O)CSc2n[nH]c(-c3ccncc3)n2)cc1Cl,5.6%
COc1ccc(C2CC(=O)Oc3ccc(C(C)(C)C)cc32)cc1 (centres undefined),2.6%&-4.0%
CCOc1nc(-c2ccc(Cl)cc2)nc2ccccc12,0.3%
O=C(COc1coc(CN2CCN(c3ccc(F)cc3)CC2)cc1=O)NC1CCCC1,4.7%
CC(=O)NCCC1CCN(c2nc3nonc3nc2N(C)Cc2ccccc2)CC1,3.2%
Cc1ccccc1OCC(=O)NC(C)c1ccccc1 (centres undefined),-11.9%
O=C(CCC1CCCCC1)Nc1cccc(C(=O)Nc2ccc(C(=O)O)cc2)c1,-3.3%
CC(C)(C)c1ccc(C(=O)NC(Cc2c[nH]c3ccccc23)C(=O)OCC(=O)c2ccc(Cl)cc2)cc1 (centres undefined),15.5%
Cc1ccc(OCCNc2ccc(C(F)(F)F)cc2[N+](=O)[O-])cc1,-1.2%
CCOc1ccccc1NC(=O)CCn1ccnc1,-10.6%
CCS(=O)(=O)N1CCN=C1SCc1ccccc1,-14.4%
COc1cccc(-c2c(C(=O)N/N=C/c3ccco3)nnn2-c2nonc2N)c1,-4.5%
S=C(NCc1ccccn1)Nc1ccc(Br)cc1Cl,-11.6%
O=S1(=O)N=C(Oc2ccccc2)c2ccccc21,15.6%
COc1ccc(OCc2n(CC(=O)OC3CC(C)CCC3C(C)C)c3ccccc3[n+]2C)cc1 (centres undefined),1.4%
COc1nccc(C(F)(F)F)c1C(=O)Nc1ccc(Cl)cc1,12.5%
COc1cccc(NC(=S)N2CCN(S(C)(=O)=O)CC2)c1,-16.1%
Cc1cc(C)cc(NC(=O)CSc2nccn2C2CCCC2)c1,12.5%
O=C(Nc1cccc(S(=O)(=O)Nc2ccccc2F)c1)c1ccco1,9.1%
Cc1cccc(OCC(=O)NCC(c2ccco2)N2CCCC2)c1 (centres undefined),11.5%
CCN1CCCC1CNC(=O)c1ccc(Sc2ccc(F)cc2)c([N+](=O)[O-])c1 (centres undefined),-11.3%
CCc1nccn1C(=O)c1cnn2c(C(F)F)cc(-c3ccc(C)cc3)nc12,u
CCN(CC)CC(O)Cn1c(-c2cccc(Cl)c2)nc2cc(C)c(C)cc21 (centres undefined),-7.8%
COc1cc(C(=O)NCCCc2nc3ccccc3n2Cc2cc(C)ccc2C)cc(OC)c1OC,-17.3%
Nc1c(Cl)cc(Cl)cc1C(=O)OCC(=O)N1CCCC1=O,-2.6%
CC(C)(C)CN1CCNC[C@H]1Cc1ccc(O)cc1,-0.9%
CC1CC(OCC(O)CN2CCN(Cc3ccccc3)CC2)CC(C)(C)C1 (centres undefined),-3.9%
CCOC(=O)Cc1cnc(NC(=O)CSc2nc(C)c(CC)c(=O)[nH]2)s1,7.4%
C=CCSc1nnc(-c2cnn(-c3ccccc3)c2-n2cccc2)n1C,-9.3%
CC1CCCC(C)N1C(=O)COC(=O)Cn1cnc2c1c(=O)n(C)c(=O)n2C (centres undefined),-17.2%
CCc1cccc(C)c1NC(=O)CSc1nc(C)cc(C)c1C(=O)Nc1ccccc1,7.9%
O=C(Nc1ncc2c(n1)-c1ccccc1CC2)c1cccc(Cl)c1,-20.3%
COc1ccccc1C(=O)Nc1c2c(nn1-c1cccc(C)c1C)CS(=O)C2 (centres undefined),-11.3%
CN(C(=O)CCl)C1CCCc2ccccc21 (centres undefined),-11.1%
